Compound activity: PubChem BioAssay, National Center for Advancing Translational Sciences (NCATS)
PINK1 modulator: A Quantitative High throughput Screen to Identify Chemical Modulators of PINK1 Expression. Potency, µM (series often up to 76.6 µM), for the others: top-dose activation (PINK1 increase), actives largely listed as activators. PINK1 immunofluorescence, high-content cytometry, 24 h. 0.2% of 410,000 active. AID 624263, 2012; active = well fitted activation curve with a large enough effect; inconclusive = small, poorly fitted or top-dose-only effect; inactive = flat fitted curve, though single readings scatter; cell line not stated here;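 also: potency is read from the fitted curve at half-maximal effect; % of control where 0% means no effect; nearly all actives have a fitted effect of over 65% in size; a mitochondrial uncoupler was the plate control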
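Readout is PINK1 immunofluorescence, quantified alongside mitochondrial, cell and nuclear markers by laser-scanning microplate cytometry. Cells from a stable line were exposed to compound titrations (5 concentrations) for 24 hours, with CCCP controls.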
Six1-Eya2 blk: qHTS Assay for Inhibitors of the Six1/Eya2 Interaction; Homeobox protein SIX1 (Homo sapiens) + Protein phosphatase EYA2 (Homo sapiens), …; AlphaScreen GST-Six1/His-Eya2 binding, biochemical; hits give low values; control for the full effect not named in the record; activity change, % (concentration not given with the values); 0.56% of 360,000 active; AID 651725, 2012; in the data active = activity change below about -65%; inconclusive = about -30% to -65%; inactive = above about -30%; also: % is scaled to controls: 0 for no effect and ±100 for the full control effect
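Six1/Eya2 binding was read as AlphaScreen signal after compounds were pinned into GST-Six1 plus His-tagged Eya2 (5X stock 250/500 nM) in pH 8.0 Tris/NaCl/TCEP buffer, beads added, then incubated 1 h, 37 C, dark.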
TRPML1 inh: qHTS for Inhibitors of the Human Mucolipin Transient Receptor Potential 1 (TRPML1); Mucolipin-1 (Homo sapiens), Q9GZU1; TRPML1-inducible cells, Ca2+ dye fluorescence, FDSS; hits give low values; inhibition of EC80 agonist-evoked calcium signal; activity change, negative = inhibition, % (no concentration beside the values); 0.02% of 390,000 active; AID 624415, 2012; in the data active means activity change below about -50%; inconclusive means about -30% to -50%; inactive means above about -30%;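 also: stimulus is agonist 54-4 at its EC80 concentration; % is scaled to controls: 0 for no effect and ±100 for the full control effect; compound concentration not given in the record; the text of the record puts the active cut at -80%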
Target sequence (Q9GZU1 whole entry, looked up): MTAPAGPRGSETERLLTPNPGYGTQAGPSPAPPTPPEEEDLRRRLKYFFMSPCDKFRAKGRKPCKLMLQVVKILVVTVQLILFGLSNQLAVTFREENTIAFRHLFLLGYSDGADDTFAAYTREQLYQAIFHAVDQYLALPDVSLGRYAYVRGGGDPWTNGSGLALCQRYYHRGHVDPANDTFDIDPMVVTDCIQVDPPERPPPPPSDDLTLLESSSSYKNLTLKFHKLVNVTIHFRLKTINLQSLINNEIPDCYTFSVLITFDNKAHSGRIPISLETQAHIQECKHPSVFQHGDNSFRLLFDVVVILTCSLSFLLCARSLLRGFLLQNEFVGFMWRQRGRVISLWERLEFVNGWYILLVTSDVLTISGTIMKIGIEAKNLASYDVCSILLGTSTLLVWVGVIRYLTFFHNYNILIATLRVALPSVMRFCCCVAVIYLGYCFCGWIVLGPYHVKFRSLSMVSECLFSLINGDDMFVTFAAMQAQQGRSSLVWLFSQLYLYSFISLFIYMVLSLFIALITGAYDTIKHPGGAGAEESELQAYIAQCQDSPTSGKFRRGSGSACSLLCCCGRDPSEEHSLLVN
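Tet-induced TRPML1-DL cells loaded with Ca8 no-wash calcium dye were read kinetically on FDSS. Compound addition was followed by EC80 agonist 54-4 (4 uM final); inhibition was read over 110 s.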
TRPML1 agonist: qHTS for Agonists of the Human Mucolipin Transient Receptor Potential 1 (TRPML1); AID 624414, 2012; 0.12% of 410,000 active; Mucolipin-1 (Homo sapiens), Q9GZU1; activation, % (test concentration not listed); TRPML1-expressing cells, Ca2+ dye fluorescence, FDSS; host cell line not named in the record; reference of the full effect not given here; in the data active = activation above about 50%; inconclusive = about 30% to 50%; inactive = below about 30%; also: 0% is about no effect; the text of the record puts the active cut at 80%
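Tetracycline-induced TRPML1-DL cells are seeded and incubated overnight before loading with a no-wash Ca2+ dye and quencher. Agonist activity is taken from the 110 s fluorescence read following compound pin-transfer on an FDSS, before EC80 54-4 challenge.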
CtBP-E1A blk: qHTS Assay for Inhibitors of the CtBP/E1A Interaction; activity change, % (concentration not given with the values); CtBP / adenovirus E1A interaction (AlphaScreen); 0.49% of 340,000 active; AlphaScreen GST-E1A/His-CtBP binding, 1536-well; hits give low values; control for the full effect not named in the record; in the data active means activity change below about -65%; inconclusive means about -30% to -65%; inactive means above about -30%; also: % is scaled to controls: 0 for no effect and ±100 for the full control effect
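AlphaScreen with 125 nM GST-E1A and 125 nM His-CtBP (5X stocks) in Tris pH 8.0, 300 mM NaCl, BSA, Tween 20, TCEP. Compounds preincubated 2 h at 37 deg C, then glutathione donor/nickel acceptor beads added for 1 h at 37 deg C in dark.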
D2 ag: Beta-Arrestin HTS for Positive Allosteric Modulators of the Human D2 Dopamine Receptor: Agonists; D(2) dopamine receptor (Homo sapiens), P14416; activation, % (concentration not given with the values); DiscoveRx PathHunter D2 beta-arrestin, luminescence, 90 min; 100% = 57 uM dopamine signal; 0.084% of 360,000 active; in the data active = activation above about 40%; inconclusive = about 15% to 40%; inactive = below about 15%; also: compound concentration not given in the record; the text of the record calls up to 30% inactive
Target sequence (P14416 whole entry, looked up): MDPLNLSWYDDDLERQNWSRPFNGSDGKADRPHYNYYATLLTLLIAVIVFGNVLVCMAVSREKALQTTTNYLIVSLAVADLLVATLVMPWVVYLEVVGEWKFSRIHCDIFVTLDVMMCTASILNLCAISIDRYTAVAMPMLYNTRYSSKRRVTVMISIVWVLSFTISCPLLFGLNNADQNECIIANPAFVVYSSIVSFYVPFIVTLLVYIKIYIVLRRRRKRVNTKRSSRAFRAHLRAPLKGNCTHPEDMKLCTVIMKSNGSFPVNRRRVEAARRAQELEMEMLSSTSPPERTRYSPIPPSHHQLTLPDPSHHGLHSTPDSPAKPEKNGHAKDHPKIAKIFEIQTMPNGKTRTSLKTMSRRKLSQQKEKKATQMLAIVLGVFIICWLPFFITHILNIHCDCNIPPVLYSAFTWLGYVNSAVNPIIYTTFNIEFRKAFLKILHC
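Agonist mode: compounds alone added to overnight-plated D2 PathHunter cells for 90 min at 37 C, with 57 uM final dopamine (EC100) defining full response. Beta-arrestin recruitment detected by chemiluminescent reagent, read after 1 h at ambient temperature.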
Active calls of the source: *; . = no result given; & = joins results of further samples; [ ] = remark or other dose.

Sequence of screens – PINK1 modulator | Six1-Eya2 blk | TRPML1 inh | TRPML1 agonist | CtBP-E1A blk | D2 ag
- O=C(O)c1cccc(NS(=O)(=O)c2ccc(S(=O)(=O)N3CCOCC3)cc2)c1
    1.5% | 1 | -25 | 0.8 | 5 | 15
- CN(C)CCNc1nc(-c2ccco2)c2c(c1C#N)CC(C)(C)OC2
    -0.4% | 3 | 4 | -0.4 | 12 | -2.6
- CCN1C[C@@H]2[C@@H]3C(=O)N(Cc4ccccc4)C(=O)[C@@H]3[C@](Cc3ccccc3)(C(=O)OC)N2C1=NC1CCCCC1
    12% | -2 | 37 | 1.0 | -2 | -1.3
- COC(=O)CCNC(=O)Cn1cnc2sc3c(c2c1=O)CCCC3
    0.8% | 2 | 4 | 0.3 | 3 | -2.0
- O=C(Cn1c(-c2cccs2)cc2cc(F)ccc21)NCCc1ccc(Cl)cc1
    14% | . | 49 | 0.6 | . | .
- CC(C)(C)OC(=O)N1CCC(c2c(C(=O)N3CCN(c4ccccn4)CC3)cnn2-c2ccccc2Cl)CC1
    0.5% | . | 1 | 1.0 | . | .
- O=c1[nH][nH]c2cc(=O)n(-c3ccc(Cl)cc3)nc12
    1.2% | -9 | 12 | 0.0 | -13 | -3.8
- Cc1ccc(S(=O)Cc2ccc(C(=O)N3CCN(C4CCCCC4)CC3)o2)cc1 (centres undefined)
    -1.9% | 5 | -3 | -0.5 | 4 | -1.6
- CCOc1ccc(OCC)c(S(=O)(=O)N2CCCCC2C)c1 (centres undefined)
    -0.2% | 5 | 55 | 2.6 | -12 | -1.8
- Cc1cc(Br)ccc1OCC(=O)NC1CCCC1
    1.3% | 4 | -6 | 0.6 | 1 | -1.3
- CCC(C)c1ccc(NC(=S)Nc2ccc(OC)c(OC)c2)cc1 (centres undefined)
    -0.8% | -15 | -6 | 1.1 | -12 | 2.6
- CCCCc1ccc(NC(=S)Nc2cccnc2)cc1
    2.5% | 0 | -22 | 1.0 | -2 | -0.6
- CC(C)CCNC(=O)c1cc(-c2ccco2)nc2ccccc12
    -1.5% | 6 | -12 | -0.3 | 2 | -1.5
- Cc1ccccc1NC(=O)Cn1c(=O)n(CCC(=O)NCc2ccc3c(c2)OCO3)c(=O)c2sccc21
    0.2% | . | 24 | 1.3 | . | .
- Cc1cc(C)cc(Cn2cc(CN3CC(N4CCN(Cc5ccccc5F)CC4)CS3(=O)=O)nn2)c1 (centres undefined)
    1.7% | 1 | . | -1.0 | -1 | .
- O=[N+]([O-])c1cccc(-c2nn(-c3ccccc3)cc2CO)c1
    -0.1% | -14 | 16 | 1.4 | . | -4.0
- c1ccc2c(c1)nc1n2CCN1CCN1CCCC1
    -1.5% | 2 | 10 | -0.3 | 10 | -1.0
- O=C(c1ccccc1Cl)N1CCCCC1CCN1CCCCC1 (centres undefined)
    0.2% | . | 4 | 1.5 | . | .
- COc1ccc(Br)cc1S(=O)(=O)N1CCOCC1
    0.2% | 1 | -12 | 0.3 | 11 | 2.1
- Cc1noc(/C=C/c2ccccn2)c1[N+](=O)[O-]
    5.4% | -23 | 8 | 0.1 | -13 | 0.3
- O=C(Nc1ccc(N2CCN(Cc3ccccc3Cl)CC2)cc1)c1cccnc1
    0.2%[38.3 µM] | -5 | 11 | 3.0 | 0 | 0.3
- COCCN(CCOC)C(=O)c1ccc(CSc2nc3ccccc3s2)cc1
    0.1% | 18 | -14 | 0.3 | -8 | -1.5
- Cc1ccc(-n2nc(-c3ccc(OC(F)(F)F)cc3)cc2N)cc1C
    12% | -27 | -14 | -0.9 | -3 | -3.2
- O=C(CSc1nnc(Cc2ccc3c(c2)OCO3)n1C1CCCCC1)NC1CCCC1
    -0.3% | -2 | 13 | 1.8 | 4 | -0.4
- COc1ccc(CNC(=O)CCc2c(C)nn(-c3ccc(N4CCCCC4)nn3)c2C)c(OC)c1
    0.8% | . | 6 | -0.5 | . | .
- Cc1c(C(c2ccc(O)cc2)c2c(C)n(C)n(-c3ccccc3)c2=O)c(=O)n(-c2ccccc2)n1C
    -1.6% | 7 | -15 | -0.5 | -15 | -3.2
- COC(=O)c1cccc(Nc2c(-c3ccc(O)c(OC)c3)nc3nc[nH]n23)c1
    4.4% | . | 14 | 0.0 | . | .
- COc1ccc(OCc2ccc(-c3nc(C#N)c(NC(C)c4ccccc4)o3)o2)cc1 (centres undefined)
    3.4% | . | 31 | 1.0 | . | .
- Cc1cccc(N(CC(=O)NC2CCCC2)C(=O)CCCC(=O)Nc2ccccn2)c1
    0.3% | -2 | -11 | 2.8 | -2 | -3.9
- COc1ccc(-c2noc(CCC(=O)N(C)c3ccccc3C)n2)cc1
    0.1% | . | 19 | -1.2 | . | .

(continued)
Sequence of screens – PINK1 modulator | Six1-Eya2 blk | TRPML1 inh | TRPML1 agonist | CtBP-E1A blk | D2 ag
- O=C(/C=C(\c1ccccc1)n1cncn1)c1ccccc1
    -2.7% | 1 | -9 | 0.3 | 6 | -2.2
- COc1ccc(NC(=O)N(C)C[C@H]2Oc3ccc(NS(=O)(=O)c4cn(C)cn4)cc3C(=O)N([C@H](C)CO)C[C@@H]2C)cc1
    -1.4% | 1 | 13 | 0.5 | 1 | -3.6
- CCc1ccccc1NC(=O)c1cnc2scc(C)n2c1=O
    -0.7% | 14 | 40 | -0.5 | -1 | -5.1
- Cc1ccc(C)c(CN2C(=O)c3ccccc3Sc3ccc(C(=O)NCCCOC(C)C)cc32)c1
    2.7% | . | 22 | 1.6 | . | .
- CC1CCN(CCCNC(=O)C2CCN(S(=O)(=O)N3CCCCC3)CC2)CC1
    -1.1%[38.3 µM] | 0 | -12 | -0.1 | 3 | -0.9
- Cc1ccc(C(C)C)c(OCC(=O)NNCC(=O)Nc2cccc(F)c2)c1
    6.1% | -11 | -8 | 4.3 | -1 | 1.0
- COc1ccc(-c2csc(NC(C)c3nc4cc(Cl)c(N5CCCCC5)cc4n3CCOCCO)n2)cc1 (centres undefined)
    0.5% | -3 | 20 | 0.4 | -19 | -6.7
- Cn1c(/C=C/c2ccc(Br)cc2)c([N+](=O)[O-])c(=O)n(C)c1=O
    -4.1% | 4 | 9 | -1.4 | -7 | -3.3
- S=C(Nc1ccc(CN2CCCCC2)cc1)Nc1cccc(Cl)c1Cl
    7.5% | -4 | 5 | -0.3 | -4 | -7.4
- O=C(c1cccc(Cl)c1)N1CCN(C(=O)c2ccccc2F)CC1
    -0.1% | 4 | 11 | -1.0 | 14 | -2.0
- Cc1ccccc1Cc1c(C)nc2nc(SCC(=O)NCCc3ccc(Cl)cc3)nn2c1C
    -0.8% | . | 22 | -1.3 | . | .
- O=C(CCC1CCCC1)N[C@@H](Cc1ccc(O)cc1)C(=O)O
    1.0% | -1 | -14 | 0.0 | 4 | -2.3
- COc1ccc(F)cc1C(=O)C1CCCN(Cc2ccc(Sc3nncn3C)o2)C1 (centres undefined)
    2.0% | -3 | -14 | 0.7 | -3 | -3.7
- CCc1c(O)nc(SCC(=O)N2CCCCC2)n(-c2ccccc2C)c1=O
    3.6%[38.3 µM] | 2 | 52 | 0.4 | -2 | -2.8
- CCOc1cc(C=O)ccc1OCCn1c([N+](=O)[O-])cnc1C
    1.5% | -3 | 2 | 0.1 | 8 | -2.7
- CC(C)(C)OC(=O)NCCCCCNC(=O)c1[nH]cnc1C(=O)Nc1ccon1
    1.3% | -29 | 4 | 0.8 | . | -1.3
- C=CCNC(=O)CN(c1ccc(F)cc1)S(=O)(=O)c1ccc(OC)cc1
    -0.7% | 15 | 22 | -0.7 | 11 | -0.1
- COc1cc(C(C(=O)NC(C)(C)C)N(C(=O)CNC(=O)c2cccs2)c2ccc(C(C)C)cc2)cc(OC)c1OC (centres undefined)
    . | -9 | 8 | -0.1 | -7 | -1.7
- O=C(COC(=O)CC1c2ccccc2CCN1S(=O)(=O)c1ccc(F)cc1)Nc1ccccc1 (centres undefined)
    -1.1% | -7 | 56 | 0.2 | -10 | -1.6
- CC(C)Cn1c(SCC(=O)NCCCN2CCCC2=O)nc2ccccc21
    -0.8% | 7 | 11 | -0.3 | -24 | 3.9
- COc1ccc(O)c(CN2CCC(n3nccc3NC(=O)CCOc3ccccc3)CC2)c1
    -1.1% | -8 | -9 | -0.3 | -7 | -1.2
- CC(=C1C(=O)c2ccccc2C1=O)N1CCN(CCN=CC2=C(O)CC(C)(C)CC2=O)CC1
    0.7% | 5 | 4 | 0.0 | -1 | -2.9
- COC(=O)C1=C(C)N(c2ccc(C)c(C)c2)/C(=C/c2ccc(O)cc2)C1=O
    2.6% | 11 | -18 | 0.5 | . | -2.6
- O=C(c1ccccc1)N1CCN(c2ncnc3c2cnn3-c2ccccc2)CC1
    -1.9% | -2 | -5 | 1.8 | -1 | -3.0
- COc1ccc(N(C)C(=O)c2cc3c(s2)-c2c(C)cccc2OC3)c(OC)c1
    3.2%&-0.4% | -14 | 12&29 | 2.4&2.8 | -12 | -5.5
- COc1ccc(-c2nnc(CSc3nc4ccccc4c(=O)n3C)o2)cc1OC
    -1.8%[38.3 µM] | 6 | 3 | 0.4 | 8 | -3.8
- Cc1ccccc1NC(=O)Cc1nnc(SCC(=O)N2CCOCC2)n1C
    2.4% | 1 | 22 | -0.2 | 9 | -1.2
- CC(NC(=O)CCC(=O)NC(C)c1ccccc1)c1ccccc1 (centres undefined)
    0.1% | 5 | 0 | 0.8 | -17 | -2.0
- O=C(c1ccc([N+](=O)[O-])cc1)N1CCN(c2ncccn2)CC1
    -2.3% | -2 | 3 | 3.0 | 6 | 4.7
- CC(C)c1ccc(/C=N\NC(=O)c2ccc(Cn3cccn3)o2)cc1
    12% | 1 | -12 | 1.8 | -6 | -0.1

Arranged by SMILES length (lowest first): 3 of the compounds above
Sequence of screens – PINK1 modulator | Six1-Eya2 blk | TRPML1 inh | TRPML1 agonist | CtBP-E1A blk | D2 ag
- COC(=O)CCNC(=O)Cn1cnc2sc3c(c2c1=O)CCCC3
    0.8% | 2 | 4 | 0.3 | 3 | -2.0
- O=C(Cn1c(-c2cccs2)cc2cc(F)ccc21)NCCc1ccc(Cl)cc1
    14% | . | 49 | 0.6 | . | .
- CCN1C[C@@H]2[C@@H]3C(=O)N(Cc4ccccc4)C(=O)[C@@H]3[C@](Cc3ccccc3)(C(=O)OC)N2C1=NC1CCCCC1
    12% | -2 | 37 | 1.0 | -2 | -1.3

Three compounds from above, showing only PINK1 modulator.
Molecule,PINK1 modulator
C=CCNC(=O)CN(c1ccc(F)cc1)S(=O)(=O)c1ccc(OC)cc1,-0.7%
Cc1ccc(C)c(CN2C(=O)c3ccccc3Sc3ccc(C(=O)NCCCOC(C)C)cc32)c1,2.7%
CCOc1cc(C=O)ccc1OCCn1c([N+](=O)[O-])cnc1C,1.5%

Compounds were not picked by outcome; overall some 1% were active at least once.
